# Menin MLL FP FL – qHTS Assay for Inhibitors Targeting the Menin-MLL Interaction in MLL Related Leukemias: Competition With Fluorescein Labeled MLL-derived Peptide. Fluorescence polarization, fluorescein-MLL peptide displacement from menin. FP activity change, % at 61.4 µM. 290,000 tested, under 10 active; inconclusive = falling polarisation curve, or a change in total fluorescence; inactive = total fluorescence flat and polarisation flat or rising; no compound was filed as active; the % refers to the polarisation; negative = inhibition;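 also: % of control where 0% means no effect; inhibitors lower the polarisation; unlabelled MLL peptide was the positive control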
# Sfp PPTase inh – qHTS Assay for Inhibitors of Bacillus subtilis Sfp phosphopantetheinyl transferase (PPTase); Biochemical Sfp PPTase activity, qHTS; Potency, µM, for inactives: max response, negative = inhibition, most hits filed as inhibitors; 3.5% of 310,000 active; active = well fitted inhibition curve with a large enough effect; inconclusive = small, poorly fitted or top-dose-only effect, or another doubt; inactive = no such curve, though single readings can be large or run the other way;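 also: the enzyme is Sfp with the accession as filed and its product quenches rhodamine fluorescence; potency is read from the fitted curve at half-maximal effect; 0% = enzyme reaction without inhibitor and -100% = no enzyme wells; top concentration of the series not given in the record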
#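 Sfp 15 nM + cpd, 15 min RT; start w/ rhodamine-CoA 5 uM, BHQ-2-YbbR 12.5 uM (final); 50 mM Hepes pH 7.6, 10 mM MgCl2, 0.01% NP-40, 0.01% BSA; read 525/598 nm at 0 and 30 min.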
# Numbers without * were called inactive; ? = inconclusive; & = joins results of further samples; [ ] = dose if it differs, or a comment. Not all compounds are listed (hit frequency here may not be typical).
Menin MLL FP FL	Sfp PPTase inh	mol
-3.7	26%	CC(C)NC(=O)N1CCC2(CC1)CCN(C(=O)c1ccco1)CC2
-3.1	1%	CN1CCC2(CC1)CCN(C(=O)c1cc(C(F)(F)F)cc(C(F)(F)F)c1)CC2
1.0	8%	C[C@H](O)CON1C(=O)c2ccccc2C1=O
59[activator]	-1%&-13%	CCCn1c(=O)c2[nH]c(-c3ccccc3)nc2n(CCC)c1=O
-3.5	-13%	COC(=O)c1ccc(C(NC(=O)OCc2ccccc2)/C(C)=C/[C@@H](C)C(=O)N(C)Cc2cccnc2)cc1 (some centres undefined)
4.8	3%	COc1ccc(C2(C#N)CCC(C(=O)O)CC2)cc1OC1CCCC1 (centres undefined)
17	20%	O=c1c(CCc2ccccc2)nc2cnc(Oc3cccc(Cl)c3)nc2n1C[C@H]1CCCO1
0.0	50µM*	CN(C)/[N+]([O-])=N/Oc1cc(ON=[N+]([O-])N2CCN(c3ncccn3)CC2)c([N+](=O)[O-])cc1[N+](=O)[O-]

# Entries of single compounds as entered above. Values in the order: Menin MLL FP FL, Sfp PPTase inh
# C[C@H](O)CON1C(=O)c2ccccc2C1=O is listed as 1.0, 8%
# CN(C)/[N+]([O-])=N/Oc1cc(ON=[N+]([O-])N2CCN(c3ncccn3)CC2)c([N+](=O)[O-])cc1[N+](=O)[O-] is listed as 0.0, 50µM*
# COc1ccc(C2(C#N)CCC(C(=O)O)CC2)cc1OC1CCCC1 (centres undefined) is listed as 4.8, 3%

# Further results
Menin MLL FP FL	Sfp PPTase inh	mol
0.1	9%	COc1ccc(-n2c(=O)c(-c3ccccc3)nc3cnc(N4CCN(C)CC4)nc32)cc1
-0.3[24.8 µM]	-21%	COc1cc2nc(N(C)CCCNC(=O)[C@@H]3CCCO3)nc(N)c2cc1OC
-7.2	1%	CC(C)CCCC(C)C1CCC2C3CC=C4CC(O)CCC4(C)C3CCC12C (centres undefined)
-2.5	31%[activator]	N#Cc1cccc(NC(=O)N2CCCC3(CCN(C(=O)c4csnn4)CC3)C2)c1
0.3	-24%	COc1cccc(C2=Nn3c(nnc3-c3cc(OC)cc(OC)c3)SC2)c1
0.6	3%	CCNc1ncc2nc(-c3ccccc3)c(=O)n(C3CC3)c2n1
-0.9	15%	Cc1cc(C(=O)N[C@@H](c2ccccc2)[C@]2(C)C[C@H]2[C@@H](C)C(=O)Nc2ccc3ccccc3c2)n(C)n1
-10[11.7 µM]	-16%	CC(C)(C)N1C(=O)[C@@H]2[C@H]3C(=CC[C@H]2C1=O)C(=O)[C@H]1O[C@H]1[C@H]3O

# (list continues)
Menin MLL FP FL	Sfp PPTase inh	mol
1.1	8%	CC/C=C\C/C=C\C/C=C\C/C=C\C=C\C(O)CCCC(=O)O (centres undefined)
0.3	-9%	COc1c(O)c(O)c2cc(OC)c3c(OC)cc(=O)c4c5c(=O)c(OC)c(C(C)=O)c6c5c(c1CC=6C)c2c34
-10&-0.3	-5%&-7%	CCCCCCC(=O)OC1CC(C)(C)NC(C)(C)C1
5.1	-8%	O=C(Nc1ccccc1)N1CCC2(CC1)CCN(S(=O)(=O)c1ccccc1)CC2
11	?	COc1ccc(CNc2ccnc(-c3ccoc3)n2)c(OC)c1
-0.6	-6%	COc1ccc(C2/C=C\CN(C(=O)c3ccccc3)C(C)C(=O)N2Cc2ccc(F)cc2)cc1 (centres undefined)
?	-27%	COc1ccc(-n2c(=O)c(-c3cccs3)nc3cnc(Oc4ccccc4)nc32)cc1
-1.3	-1%	Cc1cccc(CNc2ncncc2-c2cccc(C#N)c2)c1

# Continued.
Menin MLL FP FL	Sfp PPTase inh	mol
3.1	-13%	O=C1CCC=C1C(O)CCc1ccccc1 (centres undefined)
?	-6%	COCC(=O)N1CCC2(CCCN(Cc3ccccc3OC)C2)CC1
0.9[11.7 µM]	7%	CCN1C(=O)[C@H]2[C@H]3[C@H](O)[C@H](O)C/C(=N/OC/C=C(\C)CCC=C(C)C)[C@H]3CC[C@@H]2C1=O
4.2	-2%	O=C1C2C(c3ccccc3)CC=CC2C(c2ccc3ccccc3c2)N1Cc1ccccc1 (centres undefined)
5.5[11.7 µM]	-4%	CC(=O)OC[C@H]1O[C@@H](O/N=C(\C)CCN2CCCc3nc(C)c(C)cc32)[C@H](OC(C)=O)[C@@H](OC(C)=O)[C@H]1OC(C)=O
3.7	-23%	O=c1c(-c2ccc(F)c(F)c2)nc2cncnc2n1Cc1ccccc1
0.3	0%	CCCCC1=CC2=C(OC(C)=O)C(=O)C(C)(OC(=O)c3ccco3)C(=O)C2=CO1 (centres undefined)
-3.1	2%	C/C=C1\COC(C(=O)NCCN2CCOCC2)(C(F)(F)F)C=C1C=C1CCCCC1 (centres undefined)

# (list continues)
Menin MLL FP FL	Sfp PPTase inh	mol
-3.3	13%	CC1=CC(=O)C2=C(C)CC[C@H]3[C@H](C)C(=O)O[C@@H]3C12 (some centres undefined)
-1.7	7%	CCC(=O)Nc1ccc(O)cc1
-0.3	12%	COC(=O)c1cc(OC)c(=O)c2c(OC)c(OC)ccc2c1
-3.3	12%	CC(=O)Nc1c(I)cc(I)c(C(=O)O)c1I
1.9	12%	COCCn1c(=O)c(C)nc2cnc(N3CCN(C)CC3)nc21
-3.8	24%	Clc1ccccc1-c1cncnc1NCCN1CCOCC1
?	4%&3%	Cc1ccc2c(c1)C(=O)C1(O)CCN(c3ccccc3)C1=N2 (centres undefined)
5.7	-15%	COc1ccc(C2C3C=CCC(C)C3C(=O)N2Cc2ccccc2)cc1Cl (centres undefined)

# Next part
Menin MLL FP FL	Sfp PPTase inh	mol
-5.8	3%	CC(C)c1c(O)ccc2c1CCC1[C@@](C)(C=O)CCC[C@@]21C (some centres undefined)
4.8&-2.6	4%&-7%	COc1ccc(C2CC(c3ccccc3)Oc3ccc(OC)cc32)cc1 (centres undefined)
2.2	2%	O=C1CCCC1C(O)c1ccc2ccccc2c1 (centres undefined)
1.3	-29%	CCOC(=O)C1=C(C)Nc2nnnn2C1c1c[nH]c2ccccc12 (centres undefined)
-1.2	3%	CC(C)=CCCC1(C)C=Cc2c(O)c3c(c(CC=C(C)C)c2O1)OC12C(=CCCC1C(C)(C)O[C@@]2(C/C=C(\C)C(=O)O)C(=O)O)C3=O (some centres undefined)
-7.0	11%	COc1ncc2nc(C)c(=O)n(C)c2n1
3.1[24.8 µM]	12%	CO[C@@H]1C[C@H](O[C@H]2[C@@H](C)[C@H](O[C@@H]3O[C@@H](C)C[C@@H](N(C)C)[C@@H]3OC(C)=O)[C@H](C)C[C@]3(CO3)C(=O)[C@H](C)[C@H](OC(C)=O)[C@H](C)[C@H](C)OC(=O)[C@@H]2C)O[C@H](C)[C@@H]1OC(C)=O
0.7	-16%	CCCCC/C=C\C\C=C/C=C/C=C/[C@@H](SCC(N)C(=O)NCC(=O)O)[C@@H](O)CCCC(=O)O (some centres undefined)

# Continued.
Menin MLL FP FL	Sfp PPTase inh	mol
22	-11%&0%	CN1CCN(CCc2ccc(Cl)c(Cl)c2)CC1
-8.9	5%	Cc1noc(C)c1C(=O)N1CCC2(CC1)CCN(C(c1ccccc1)c1ccccc1)CC2
-1.0&2.9&-3.2	-16%&-25%&-20%	COC(=O)C1(C(=O)OC)C/C=C\Cc2ccccc2[C@@H]1C[N+](=O)[O-]
1.4	?	CC(C)CN1CCC2(CC1)CCN(C(=O)c1csnn1)CC2
?	-15%	COC(=O)C1(Cc2ccccc2)C=C2C(=C(C(C)C)C(=O)C2C)CN1 (centres undefined)
-1.3	-6%	Cc1cnc(CNc2nc(-c3ccccc3C(F)(F)F)nc3ccccc23)cn1
14	50µM*	O=C(/C=C\c1ccc(O)c(O)c1)O[C@@H](Cc1ccc(O)c(O)c1)C(=O)O
2.1&18	2%&4%	CSc1cc2c(cc1C(F)(F)F)N(C(=O)Nc1cccnc1)CC2

# (further entries)
Menin MLL FP FL	Sfp PPTase inh	mol
-1.5	28%	CCC/C=C(\CCC)C(NS(=O)(=O)c1ccc(C(F)(F)F)cc1)c1ccc(-c2ccccc2)cc1 (centres undefined)
0.2	?	COc1ccc(C(=O)N2CCC3(CC2)CCN(C(c2ccccc2)c2ccccc2)CC3)cc1
-7.0	79µM*	O=C(O)c1ccc2c(c1)C(=O)N([C@H](Cc1ccc(O)c(O)c1)C(=O)O)C2=O
?	1%	CN1CCN(c2ncc3nc(-c4cn(C)c5ccccc45)c(=O)n(Cc4cccs4)c3n2)CC1
0.5	14%	COC(=O)C1=C[C@@H](C(=O)OC)[C@@H]2C3=C(C(=O)C2(C)C)[C@H](C)n2c(=O)n(C)c(=O)n2[C@@H]3C1
1.7	-2%	CC(C)[C@H](NC(=O)[C@@H]1CSSC[C@H](NC(=O)[C@H](CC(=O)O)NC(=O)[C@H](C)NC(=O)[C@@H](NC(=O)CNC(=O)[C@H](C)N)[C@@H](C)O)C(=O)N[C@@H](Cc2ccccc2)C(=O)N[C@@H](Cc2c[nH]c3ccccc23)C(=O)N[C@@H](CCCCN)C(=O)N[C@@H](Cc2ccc(O)cc2)C(=O)N1)C(=O)O
-2.0	10%	O=S1(=O)NCC23CCC(CC21)O3 (centres undefined)
-1.5	41%[activator]	CNC(=O)C1(C)C=CC2(CCCCC2)N1C(C)=O (centres undefined)

# Other entries follow:
Menin MLL FP FL	Sfp PPTase inh	mol
-1.1	4%	CN1CCN(c2ccnc(-c3cccc(NS(C)(=O)=O)c3)n2)CC1
-3.7	16%	COc1ccc(C2CC(O)(c3ccccc3)Oc3cc(C)c(Cl)c(C)c32)cc1 (centres undefined)
6.0	-4%	CC1(C)OC(=O)C=C[C@@]2(C)C1C[C@@H](O)[C@]1(C)C2CC[C@@]2(C)C(c3ccoc3)OC(=O)[C@H]3O[C@]321 (some centres undefined)
-1.7[11.7 µM]	-4%	CCCCc1nc2c(c3c1C[C@H](C)OC3)CN(C(=O)N[C@H](C(=O)OC)C(C)C)CC2
1.6	16%	O=C(Nc1cccc(F)c1)N1CC[C@@]2(CCCN(C(=O)c3csnn3)C2)C1
1.5[11.7 µM]	12%	Cc1ccc(S(=O)(=O)n2c3ccccc3c3nnc(C(=O)c4ccccc4)nc32)cc1
-1.2[94.6 µM]	10%	CCCCC(CC)C/C=C1\CC(C(=O)OCC)Oc2ccccc21 (centres undefined) (tested in a mixture with another compound)
14	21%	CC(=O)N1C2(C=CC1(C)C(=O)NCc1cc(F)cc(C(F)(F)F)c1)CCCCC2 (centres undefined)

# Given field by field: entries from further up.
Compound: CC1(C)OC(=O)C=C[C@@]2(C)C1C[C@@H](O)[C@]1(C)C2CC[C@@]2(C)C(c3ccoc3)OC(=O)[C@H]3O[C@]321 (some centres undefined)
  Menin MLL FP FL = 6.0
  Sfp PPTase inh = -4%

Compound: Cc1ccc(S(=O)(=O)n2c3ccccc3c3nnc(C(=O)c4ccccc4)nc32)cc1
  Menin MLL FP FL = 1.5[11.7 µM]
  Sfp PPTase inh = 12%

Compound: CN1CCN(c2ccnc(-c3cccc(NS(C)(=O)=O)c3)n2)CC1
  Menin MLL FP FL = -1.1
  Sfp PPTase inh = 4%

Compound: O=C(Nc1cccc(F)c1)N1CC[C@@]2(CCCN(C(=O)c3csnn3)C2)C1
  Menin MLL FP FL = 1.6
  Sfp PPTase inh = 16%

# Further records
Menin MLL FP FL	Sfp PPTase inh	mol
0.3	5%	COc1cc2c(c(OC)c1OC)-c1c(cc3c(c1OC)OCO3)CC(C)C(C)(O)C2OC(=O)c1ccccc1 (centres undefined)
-3.3	20%	CC(Cc1ccccc1)C(=O)NCCc1c[nH]c2ccccc12 (centres undefined)
4.0	0%	COC(=O)c1ccc(C(NC(=O)OCc2ccccc2)/C(=C/[C@@H](C)C(=O)NCc2nc3ccccc3n2C)c2cccnc2)cc1 (some centres undefined)
1.6	-6%	O=C(NC(=O)c1ccccc1)NC1(C(F)(F)F)OCCO1
-4.2	3%	COc1ccc(Oc2ncc3ncc(=O)n(CCC#N)c3n2)cc1
-1.3	-17%	COC1=C2C[C@@H](C)C[C@H](OC)[C@H](O)[C@@H](C)/C=C(\C)[C@H](OC(N)=O)[C@@H](OC)/C=C\C=C(/C)C(=O)NC(=CC1=O)C2=O
1.2	17%	COc1ccccc1-c1nccc(N2CCN(C)CC2)n1
-7.8	-23%	CN(C)c1ccc(-c2nc(NC3CCNCC3)c3ccccc3n2)cc1

# New compounds follow.
Menin MLL FP FL	Sfp PPTase inh	mol
-9.9	2%	O=C(Oc1ccccc1)N1CCC[C@@]2(CCN(c3ccncc3)C2)C1
-0.8	8%	CN(C)Cc1ccccc1-c1cncnc1Nc1ccncc1
1.3[24.8 µM]	18%	CC[C@@H]1OC(=O)[C@H](C)[C@H](O[C@@H]2C[C@](C)(OC)[C@H](O)[C@H](C)O2)[C@H](C)[C@H](O[C@@H]2O[C@@H](C)C[C@@H](N(C)C)[C@@H]2O)[C@](C)(O)C[C@H](C)C(=O)[C@H](C)[C@H](O)[C@]1(C)O
2.0	-13%	CCCCC1=CC2=C(OC(C)=O)C(=O)C(C)(OC(=O)C3CCCC3)C(=O)C2=CO1 (centres undefined)
14	-22%	COC1C=CO[C@@]2(C)Oc3c(C)c(O)c4c(O)c(c(C=NN5CCN(C)CC5)c(O)c4c3C2=O)NC(=O)/C(C)=C\C=CC(C)C(O)[C@@H](C)C(O)C(C)[C@H](OC(C)=O)C1C (some centres undefined)
-3.0[24.8 µM]	19%	CCc1cccc2c3c([nH]c12)[C@@](CC)(CC(=O)O)OCC3
0.5[11.7 µM]	6%	COc1cc(O)c(C(=O)/C=C/c2ccccc2)c(O)c1

# Source: PubChem BioAssay
